Assay outcomes deposited in PubChem by NMMLSC.
Bead autofluor – flagged as autofluorescent in microsphere protease counterscreen; fluorescence intensity (concentration not given with the values); 360,000 tested, 3.1% active; AID 624483; compound autofluorescence counterscreen, microsphere flow cytometry; hits give high values;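 active = at least 3 SD above the mean of all compounds, about 16000 in these data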;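 note: 100 nL of 1 mM stock went into each well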
* = called active by the depositor. The list is partial, so the mix of outcomes need not match the whole.

| SMILES | Bead autofluor |
| --- | --- |
| NC(=O)c1ccc(NC(=O)COC(=O)c2ccccc2SCC(=O)N2CCCC2)cc1 | 2846 |
| COc1ccccc1NC(=O)COC(=O)c1ccc2c(=O)n3c(nc2c1)CCC3 | 3767 |
| COC(=O)[C@]12CCCCC=C1N(Cc1cccc3ccccc13)C(=O)[C@H](CC(=O)N1CCC(c3ccccc3)CC1)C2 | 4293 |
| COc1ccccc1S(=O)(=O)N(C)C[C@@H]1Oc2ncc(-c3ccc(C)cc3)cc2C(=O)N([C@H](C)CO)C[C@@H]1C | 2781 |
| O=C(O)c1ccc2c(c1)S(=O)(=O)c1cc(N3CCN(c4ncccn4)CC3)ccc1C2=O | 3653 |
| C[C@@H]1CN([C@H](C)CO)C(=O)CCCn2nncc2CO[C@H]1CN(C)C(=O)Cc1ccccc1 | 3935 |
| COc1cc(-c2c(NC(=O)c3ccco3)oc3ccc(Cl)cc3c2=O)cc(OC)c1OC | 3595 |
| C[C@@H]1CN([C@@H](C)CO)C(=O)c2cc(Br)cnc2O[C@H]1CN(C)C(=O)c1cccc(F)c1 | 2925 |
| COc1ccc(Cl)cc1CC1(C)C(=O)Nc2c(Cl)cccc21 (centres undefined) | 3528 |
| O=C(NCC1CCCO1)c1ccc2c(c1)N(Cc1ccc(Cl)cc1)CCS2 (centres undefined) | 3469 |
| CCOC(=O)c1c(C)nc(C)c(C(=O)OCC)c1-c1cccc([N+](=O)[O-])c1 | 3381 |
| CC(=O)Nc1ccc(CN2C(=O)C(C)(C)ON=C2c2ccc(C(F)(F)F)cc2)cc1 | 4248 |
| CN(Cc1ccccc1)C(=O)c1[nH]cnc1C(=O)Nc1ccccc1F | 3816 |
| C[C@H](NC(=O)c1ncn2c1C(=O)NC[C@@H]2C)c1ccccc1 | 3529 |
| Cn1c(=O)c2cc(NC(=O)NCc3ccccc3)ccc2n1Cc1ccc(Cl)cc1 | 3455 |
| O=C1c2ccccc2C(c2nc3ccccc3[nH]2)N1c1ccccc1 (centres undefined) | 6037 |
| O=C(c1ccco1)N1CCN(C(=O)c2ccco2)CC1 | 4107 |
| CCOC(=O)C1(C)CCN1C(=O)c1ccccc1OC(F)(F)F (centres undefined) | 3761 |
| CC1=C(C(=O)Nc2ccccc2C(=O)N2CCN(c3ccccc3)CC2)SCCO1 | 3040 |
| C[C@H](CO)N1C[C@H](C)[C@@H](CN(C)S(=O)(=O)c2cccc(C#N)c2)OCc2cn(nn2)CCCC1=O | 3019 |
| [O-][N+](=Cc1ccccc1)CC1(O)CCCCC1 | 3810 |
| O=C1CCN(CCCN2CCC(=O)N(Cc3ccccc3)C2=S)C(=S)N1Cc1ccccc1 | 3894 |
| O=C(NCCCn1cccn1)c1cc(COc2ccccc2)on1 | 4153 |
| C#CCN(C[C@H]1[C@H](OC(=O)NCc2ccco2)[C@H](OC(=O)NCc2ccco2)C[C@H]2C(=O)N(c3ccccc3)C(=O)[C@@H]12)S(=O)(=O)c1ccc(C)cc1 | 3673 |
| Cc1ccccc1N1Cc2ccccc2C1=O | 3560 |
| CC1OC(COCc2ccccc2)Cc2[nH][nH]c(=O)c21 (centres undefined) | 5762 |
| C[C@H](O)[C@@H]1C(=O)N2CCc3c([nH]c4ccccc34)[C@@H]2C[C@@H]1N(C)Cc1ccc(Cl)cc1 | 3483 |
| COc1ccccc1N(C)S(=O)(=O)c1ccc(C(=O)N(C)Cc2cccc(F)c2)cc1 | 3651 |
| COc1ccc(N2CC(C)(C)[C@H](CC(=O)Nc3ccccc3)C2=O)cc1 | 3868 |
| COc1ccc(C(O)c2ncc(-c3ccccc3OC)[nH]2)cc1F (centres undefined) | 3434 |
| O=C(NCc1cc(Cl)cc(Cl)c1)c1ccc2sc([C@H]3C[C@H](O)[C@@H](CO)O3)nc2c1 | 2953 |
| OC[C@@H]1CN(Cc2ccc(Cl)cc2)C[C@H](n2cnc3c(N4CCN(c5ccccc5)CC4)ncnc32)O1 | 3724 |
| O=[N+]([O-])c1ccc2oc(/C=C/c3ccc(O)cc3)nc2c1 | 3789 |
| Cc1ccc(S(=O)(=O)N2C[C@H]3C(=O)C[C@@H](c4ccccc4)N(S(=O)(=O)c4cccc(C)c4)[C@H]3C[C@H]2c2ccccc2)cc1 | 4262 |
| OC(c1ccc(Cl)c(F)c1)c1ncc(-c2cccc(C(F)(F)F)c2)[nH]1 (centres undefined) | 3987 |
| COc1ccc(-c2cc(CNc3nc4cc(-c5ccccc5C)sc4c(=O)n3C)on2)cc1 | 3480 |
| CCCC#Cc1ccc2c(c1)O[C@H](CN(C)S(=O)(=O)c1cccc(OC)c1)[C@H](C)CN([C@H](C)CO)S2(=O)=O | 3817 |
| CCc1nc2ccc(C(=O)NCCN(C)C)cn2c1N(CC)CCOC | 3440 |
| Cc1cc(C)c(NC(=O)C2CCN(S(C)(=O)=O)CC2)c(C)c1 | 3831 |
| CCCCNC(=O)C1(C)CCN1C(=O)c1cncc(Br)c1 (centres undefined) | 3785 |
| O=C(c1ccc2ccccc2c1)c1cccc(F)c1C(=O)O | 3805 |
| c1ccc(CNCc2ccc(CNCc3ccccc3)cc2)cc1 | 2886 |
| O=C1NC[C@H](Cc2ccc(O)cc2)N(C[C@@H]2CCCN2C[C@H](Cc2ccccc2)N2C[C@H](Cc3ccc(O)cc3)N(CC3CCCCCC3)C(=O)C2=O)C1=O | 6054 |
| CC(=O)NC(c1cccc(F)c1)c1nc(-c2cccc(F)c2)cs1 (centres undefined) | 2913 |
| Cc1nn(C)cc1CN(C)C(=O)C1CCC(=O)N(CCc2cccc(F)c2)C1 (centres undefined) | 4046 |
| Cc1ccc(NC(=O)c2ccc(-c3cc(Cl)ccc3Cl)o2)c(C)c1 | 3393 |
| Nc1[nH]c(C(=O)c2ccccc2)c(-c2ccc(Br)cc2)c1C(=O)c1cccs1 | 5122 |
| CN(C)c1ccc(C(=O)N2CCC2(C)C(=O)O)cc1 (centres undefined) | 3976 |
| COCCCNC(=O)c1cccc2c(-c3cccc(C(N)=O)c3)coc12 | 3506 |
| COCCCN1C(=O)C(CC(=O)NCc2cccc3ccccc23)CC(C(=O)N(C(C)C)C(C)C)=C1C (centres undefined) | 4242 |
| COc1ccc(C(C)(O)c2nc(-c3cccc(C(F)(F)F)c3)cs2)cc1 (centres undefined) | 3632 |
| CC(=O)C1=CCC(c2ccc(Br)cc2)N(S(=O)(=O)c2ccc(C)cc2)C1 (centres undefined) | 5921 |
| Clc1nnc(NC2CCCCC2)c(Cl)c1Cl | 3798 |
| CC1=C(C#N)C(C)(C)C(C#N)=C(C)N1 | 3638 |
| CC(C)CC1C(=O)N(Cc2cn(Cc3ccco3)nn2)CCS(=O)(=O)N1Cc1ccc(-c2ccc(Cl)c(Cl)c2)cc1 (centres undefined) | 3838 |
| O=C(NCCO)c1cccc(-c2cccc3nncn23)c1 | 3466 |
| COCCNc1ncnc2c1ncn2[C@H]1CN(Cc2ccc3c(c2)OCO3)C[C@@H](CO)O1 | 3862 |
| C=Cc1cnc([N+](=O)[O-])n1C | 3565 |
| COc1ccc(CN2C(=O)C(CC(=O)NCC3CCCCC3)CC(C(=O)N(C)C)=C2C)cc1 (centres undefined) | 3279 |
| C[C@@H]1CN([C@@H](C)CO)C(=O)c2cc(Br)cnc2O[C@H]1CN(C)Cc1cccc(C(=O)O)c1 | 3719 |

Continuation:
| SMILES | Bead autofluor |
| --- | --- |
| COC(=O)c1c(NC(=O)c2ccc(S(=O)(=O)N3CC(C)OC(C)C3)cc2)sc2c1CCN(C)C2 (centres undefined) | 4029 |
| COc1ccc(NC(=O)c2cc(C3CCCCN3C(=O)c3ccc4c(c3)CCO4)on2)c(C)c1 (centres undefined) | 3517 |
| C[C@@H]1CN([C@@H](C)CO)C(=O)CCCn2nncc2CO[C@@H]1CN(C)S(=O)(=O)c1ccc(-n2cccn2)cc1 | 4055 |
| CC(C)C[C@H]1CN([C@@H](CC(C)C)CN2CCCC2CN2C(=S)NC[C@@H]2Cc2ccccc2)C(=S)N1CC1CCCCC1 (some centres undefined) | 6274 |
| O=C(NC(c1ccccc1)c1ccc2ccccc2n1)C1CCN(Cc2cccc(C(F)(F)F)c2)CC1 (centres undefined) | 3985 |
| C[C@H](CO)N1C[C@H](C)[C@@H](CN(C)C(=O)c2cc(-c3ccccc3)on2)OCc2cn(nn2)CCCC1=O | 3788 |
| CCNC(=O)C1(C)CCCN(Cc2noc(-c3c(C)noc3C)n2)C1 (centres undefined) | 3419 |
| CCC1Oc2ccccc2N(CC(=O)N2CC(C)CC(C)C2)C1=O (centres undefined) | 3555 |
| C[C@H](CO)N1C[C@H](C)[C@@H](CN(C)S(=O)(=O)c2ccccc2)OCCCC[C@H](C)Oc2ccc(NC(=O)CCC(F)(F)F)cc2C1=O | 3111 |
| C[C@@H]1CN([C@H](C)CO)C(=O)c2cc(/C=C/c3ccccc3)cnc2O[C@H]1CN(C)C(=O)NC1CCCCC1 | 3974 |
| C[C@H]1CN([C@@H](C)CO)C(=O)CCCn2nncc2CO[C@H]1CN(C)C(=O)Nc1cccc2ccccc12 | 4311 |
| O=C(NCc1ccncc1)[C@@H]1CCCN1C(=O)[C@H]1CCCN1C(=O)c1c(F)cccc1F | 6070 |
| CCCCN(C=O)c1c(CC)nc2ccc(C(=O)N3CCN(c4ccccc4)CC3)cn12 | 3460 |
| COCCCNc1ccn2nc(-c3ccc(Cl)cc3)cc2n1 | 3146 |
| COc1ccc(S(=O)(=O)Nc2ccc3c(c2)C(=O)N([C@H](C)CO)C[C@H](C)[C@@H](CN(C)Cc2ccncc2)OCCCC[C@@H](C)O3)cc1 | 3568 |
| COc1ccccc1S(=O)(=O)N(C)C[C@H]1OCc2cn(nn2)CCCC(=O)N([C@@H](C)CO)C[C@@H]1C | 4022 |
| COc1cccc(C(C)(O)c2nc(-c3cnn(C)c3)cs2)c1 (centres undefined) | 3851 |
| CC1(C(=O)Nc2cccc3ncccc23)CCN1C(=O)C1(c2ccccc2)CC1 (centres undefined) | 3627 |
| CCN(C)C1CN(Cc2cn(Cc3ccc(F)cc3)nn2)S(=O)(=O)C1 (centres undefined) | 5724 |
| O=C(NCc1cccc(C(F)(F)F)c1)c1ccc2nc([C@@H]3O[C@H](CO)[C@@H](O)[C@H]3O)[nH]c2c1 | 3320 |
| COc1cc(C(O)c2nc(-c3cccs3)cs2)ccc1F (centres undefined) | 3359 |
| CCC(=O)N1Cc2cc(C(=O)N(C)C)nc(-c3cccc(-c4cncnc4)c3)c2[C@@H]1CCO | 5877 |
| CN(C)c1cccc(CNC(=O)c2csc([C@H]3C[C@H](O)[C@@H](CO)O3)n2)c1 | 3636 |
| CCOc1ccc(Cl)cc1-c1cc(C(=O)Nc2ccc(Br)cc2)[nH]n1 | 4476 |
| c1ccc(Sc2ccncc2)cc1 | 3708 |
| Cc1ccc(-n2c(SCC(=O)NC3CCS(=O)(=O)C3)nc3ccccc3c2=O)c(C)c1 (centres undefined) | 3753 |
| CCNC(=O)C1(C)CCCN(CC(=O)c2ccccc2OC)C1 (centres undefined) | 3954 |
| C=Cc1ccc(Cn2c(C)c(C(=O)NCc3ccc4c(c3)OCCO4)sc2=O)cc1 | 5561 |
| COc1cccc(-c2ccc(NC(=O)C3CCCN(Cc4cccc(C)n4)C3)cc2)c1 (centres undefined) | 3584 |
| Cc1cc2c(cc1C)C(=O)CCC2 | 4056 |
| CC(C)NC(=O)c1cc(C2CCCCN2S(=O)(=O)c2ccc(C#N)cc2)on1 (centres undefined) | 3942 |
| COc1ccc(C(=O)c2[nH]c(N)c(C(N)=O)c2-c2ccc(OC)c(OC)c2)cc1 | 5980 |
| COc1cccc(-c2csc(Nc3ccc(Oc4ccccc4)cc3)n2)c1 | 6049 |
| Cc1c(COc2ccc3ccccc3c2)nnn1CC(=O)NS(=O)(=O)c1ccccc1C(F)(F)F | 3979 |
| C[C@H]1CN([C@@H](C)CO)C(=O)c2cc(Br)cnc2O[C@H]1CN(C)C(=O)c1ccc2c(c1)OCO2 | 2957 |
| COc1ccc(CNC(=O)Nc2ccc3c(c2)c(=O)n(C)n3Cc2cccc(C(F)(F)F)c2)cc1 | 3858 |
| OC(c1ccccc1)c1nc(/C=C/c2ccccc2)cs1 (centres undefined) | 3760 |
| c1ccc(CNc2c(C3CCNCC3)nc3scc(-c4ccccc4)n23)cc1 | 5476 |
| CC1(c2nnnn2-c2ccc3c(c2)OCCO3)CCC(=O)N1CCCn1ccnc1 (centres undefined) | 5716 |
| CN(Cc1ccco1)C(=O)c1cccc(S(=O)(=O)N2CCN(Cc3ccccc3)CC2)c1 | 3945 |
| Cc1c(C(=O)NCc2cccc(Cl)c2)sc(=O)n1Cc1cccc(F)c1 | 4183 |
| COc1ccc(-c2c(Sc3ccccc3)c3cc(-c4ccc(OC)c(F)c4)ccc3n2C)cc1 | 6032 |
| Nc1ccc(S(=O)(=O)c2ccc(N3CCOCC3)c(N)c2)cc1 | 2912 |
| Cc1ccc(Cl)cc1-c1cc(C(=O)NCc2cccc(Cl)c2)[nH]n1 | 3071 |
| Cc1nc2ccc(C(=O)NCCCN3CCCC3=O)cn2c1N(C)C(=O)CCc1ccccc1 | 4003 |
| CCc1nc2ccc(C(=O)NCCc3ccccn3)cn2c1N(CCC(C)C)CCN(C)C | 2993 |
| Cc1noc(C)c1-c1ccc(C(=O)NCC2CC2)c2occc12 | 3372 |
| COc1cc(CN2C(=O)C(CCc3ccccc3)ON=C2c2cnccn2)cc(OC)c1 (centres undefined) | 5179 |
| Cc1ccc(Cn2cc(CN3CC(N(C)C)CS3(=O)=O)nn2)cc1 (centres undefined) | 6303 |
| Cc1c(C)c2cc(Cl)c(OCC(=O)Nc3ccccn3)cc2oc1=O | 3630 |
| Cc1nccn1-c1ccc(NC(=O)[C@H]2O[C@@H](n3cnc4c(N)ncnc43)[C@H](O)[C@@H]2O)cc1 | 5945 |
| Cc1ccc([C@H]2C[C@@H](O)[C@H](n3cc(-c4ccc(F)cc4)nn3)CN2C(=O)c2cccs2)cc1 | 2982 |
| Cn1c(N)nc(N)c(NC=O)c1=O | 5830 |
| Cc1ccsc1C(=O)N1CCC1(C)C(=O)NCCC#N (centres undefined) | 3793 |
